MgrA DNA FP – S. aureus MgrA-DNA binding modulation; inhibition, %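 (about 10 µg/mL by stock and volumes)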; AID 602314; fluorescence polarization; actives 0.13% (n = 84,000);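 active = above 50% in either of two replicates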;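 also: 0% = protein plus DNA without compound and 100% = DNA alone without protein; higher means less MgrA bound to DNA so lower polarization; one replicate is shown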
S aureus helic – blocks Staphylococcus aureus DNA helicase; purified S. aureus helicase, fluorescence unwinding assay; about half of the hits fall short of the stated cut; inhibition, %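 (tested at about 80 µM)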; actives 0.05% (n = 120,000); AID 485395;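 active = both duplicates at 50% or more, or one of them with a favoured structure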;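 also: 0% = mean of negative control wells and 100% = mean of positive control wells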
* hit, by the source's call; nt = no result given; & = joins results of further samples. An excerpt; the hit share may differ from the screen's.

SMILES | MgrA DNA FP | S aureus helic
CCN(CC)c1ccc(C=C2C(=O)N(C)C(=S)N(C)C2=O)cc1 | 10 | 9
COc1cc(OC)c(C(=O)OC(C)C(=O)N2CCC(C)CC2)cc1OC (configuration not stated) | nt | 17
Cc1ccc2c(c1)c1cccc3c1n2CCN3CCC#N | nt | 7
Cc1ccc(CSc2n[nH]c(N)n2)cc1 | -0.8 | 9&6
COc1cccc(C2c3c(oc4ccccc4c3=O)C(=O)N2c2ccccn2)c1 (configuration not stated) | nt | -7
COCCCn1c(C)cc(C(=O)COc2cccc(C#N)c2)c1C | nt | -7
CCCC1c2ccc(C)n2CCN1C(=O)Nc1cc(Cl)ccc1C(=O)OC (configuration not stated) | 0.0 | 7
N#Cc1ccc(COc2cccc3cccnc23)cc1 | -3.5 | -1
CCOC(=O)C1CCCN(C(=O)c2c[nH]n3c(=O)c(Cc4ccc(Cl)cc4)c(C)nc23)C1 (configuration not stated) | -0.2 | -4
COc1ccc(C2N(c3ccc(OC)cc3)C(=O)C23CCCC3)cc1 (configuration not stated) | -2.2 | 6

Rewritten with each value named: entries from further up.
CCCC1c2ccc(C)n2CCN1C(=O)Nc1cc(Cl)ccc1C(=O)OC (configuration not stated)
  MgrA DNA FP: 0.0
  S aureus helic: 7

N#Cc1ccc(COc2cccc3cccnc23)cc1
  MgrA DNA FP: -3.5
  S aureus helic: -1

CCOC(=O)C1CCCN(C(=O)c2c[nH]n3c(=O)c(Cc4ccc(Cl)cc4)c(C)nc23)C1 (configuration not stated)
  MgrA DNA FP: -0.2
  S aureus helic: -4

Further records
SMILES | MgrA DNA FP | S aureus helic
CCN(CC)C(=S)Nc1ccc2nsnc2c1 | 4.2 | 1
CCn1cnc2cc(NC(=O)C3CCCCC3)ccc21 | -3.9 | 7
CC(C)Oc1snc(Cl)c1C(N)=O | -2.2 | 15
COc1ccc(S(=O)(=O)NC(CC(=O)NC2CCCC2)c2ccco2)cc1 (configuration not stated) | nt | 19
O=C1C=CC(=O)N1c1ccc2c(c1)OCCO2 | 4.3 | nt
O=C(Nc1ccccc1)c1ccccc1OCC(=O)N1CCCC1 | nt | 5
NC(=O)NCCc1nc2ccccc2[nH]1 | nt | -19
COc1cc(C(=O)O)cc(OC)c1OCC(N)=O | nt | 5
COc1cccc(C(=O)OCC(=O)NCc2ccccc2)c1 | nt | -1
COc1ccc(C2CC(c3ccccc3)=NN2C(=O)CN(C)C2CCS(=O)(=O)C2)cc1 (configuration not stated) | nt | 8
CCc1cccc(NC(=O)Cn2ncc3c(=O)oc4ccccc4c32)c1 | nt | 37
Cc1cc2nc(CSc3nc4ccccc4[nH]3)cc(=O)n2o1 | nt | -16
COC(=O)c1ccc(NC(=S)NC2CC2)cc1 | -0.2 | 9
COC(=O)c1sc(N)c(C(=O)OC)c1COC(=O)CNS(=O)(=O)c1cccc(C#N)c1 | nt | -8
Cn1c(Sc2nc3ccc(Cl)cc3s2)nnc1-c1ccc(Cl)cc1Cl | -3.6 | nt
CCOC(=O)c1c(NC(=O)CC)sc(C)c1C | -0.2 | 2
Cc1ccc(C)c(N2CCN(CCCNC(=O)c3oc4c(c3C)-c3[nH]ncc3CC4)CC2)c1 | 0.0 | 9
CC(C)(C)OC(=O)n1cc(C(=O)c2ccccc2O)cn1 | nt | -12
S=C(NCC1CCCO1)N1CCc2ccccc21 (configuration not stated) | nt | 5
CCNS(=O)(=O)c1ccc(NC(=O)Cc2ccc(OC)cc2)cc1 | -3.7 | 6
Cn1cc(O)nc1NC(=O)c1cccc(Oc2ccccc2)c1 | 0.2 | -7
CC(C)(C)c1ccc(C(=O)NCCn2c(N)c(C#N)c3nc4ccccc4nc32)cc1 | nt | 8
CCC(C)(O)c1cn(Cc2ccccc2)nn1 (configuration not stated) | nt | -1
Cn1nc(C(=O)N2CCCCC2)c2c1-c1ccccc1SC2 | nt | -21
Cc1ccc(N2C(=O)C(C(C)C)NC2=S)cc1 (configuration not stated) | nt | 2
COc1ccccc1N(C(=O)C1CSC(=O)C1)C(C(=O)NC1CCCCC1)c1ccncc1 (configuration not stated) | -2.6 | 7
O=C(CCS(=O)(=O)c1ccc(F)cc1)Nc1ccccc1 | nt | 5
Cc1cccc(-n2c(SCc3csc(C)n3)nnc2-c2cccc(S(=O)(=O)N(C)C)c2)c1 | nt | -6
COc1ccc(C(CC(=O)NCc2ccco2)Sc2n[nH]c(-c3ccc(Cl)cc3)n2)cc1 (configuration not stated) | -1.1 | 10
COc1ccc(C2Nc3ccccc3C(=O)N2Cc2ccco2)cc1CN1C(=O)c2ccccc2C1=O (configuration not stated) | -0.9 | nt
S=c1[nH]c2ccccc2n1CCc1ccccc1 | nt | -27
CC(C)Cn1c(SCn2nnc3ccccc3c2=O)nc2ccccc2c1=O | nt | 13
O=C1C(c2ccc(Br)cc2)=C(O)c2ccccc21 | -1.1 | nt
NS(=O)(=O)c1ccc(N2CCCC2=O)cc1 | -3.0 | 20
O=C(O)CSc1nc2ccccc2n2cnnc12 | -2.3 | 9
CN(Cc1c(F)cccc1Cl)C(=O)Cc1ccc2c(c1)OCCO2 | nt | 25
COC(=O)CSC1=C(C#N)C(c2cc(Br)c(O)c(OC)c2)CC(=O)N1 (configuration not stated) | 0.8 | nt
O=C(CCc1nc2ccccc2o1)OCc1cc(=O)n2c3c(sc2n1)CCCC3 | nt | 12
O=S(=O)(NC1CCCC1)c1cccs1 | -1.4 | 7
Cc1ccc(C(O)C(=O)c2cccs2)o1 (configuration not stated) | nt | 9
COC(=O)C(O)C(Sc1ccccc1N)c1ccccc1 (configuration not stated) | nt | 8
COc1ccc(Nc2ccnc3ccccc23)cc1 | nt | 6
CN(Cc1ccco1)C(=O)C(Cc1ccccc1)NS(=O)(=O)c1cccc2cccnc12 (configuration not stated) | nt | 10
O=C1NC(c2ccccc2)/C(=C(\O)c2ccccc2)C1=O (configuration not stated) | 0.6 | 6
O=C(O)CNC(=O)c1ccc(N2CCCC2=O)cc1 | nt | 7
CC1=Nc2ccccc2N=C(NC(=O)CN2CCN(c3ccccc3)CC2)C1c1ccccc1 (configuration not stated) | nt | -4
COc1ccc(/C=N/OCC(=O)N2CCN(C)CC2)cc1 | nt | -17
CS(=O)(=O)N(CCc1ccc(Cl)cc1)S(C)(=O)=O | -0.2 | nt
CCOC(=O)C1=C(CSc2nnnn2-c2ccccc2OCC)NC(=O)NC1c1ccccc1 (configuration not stated) | nt | 8
OC(CON=C1c2ccccc2-c2ccccc21)CN1CCN(c2ccccn2)CC1 (configuration not stated) | nt | 12
Continued.
SMILES | MgrA DNA FP | S aureus helic
CC(C)CNC(=O)C1Sc2nnc(-c3ccccc3)n2NC1c1ccccc1 (configuration not stated) | -0.1 | 10
CC1(C)CC(NC(=O)c2ccc(C#N)cc2)CC(C)(C)N1 | 0.6 | -7
CSC(=S)n1cccc1 | 2.8 | -18
Cc1ccccc1C(=O)OC1CCCC1 | -1.8 | 7
COc1ccc(-c2nc(CSCC(=O)NCCN3CCN(c4cccc(Cl)c4)CC3)c(C)o2)cc1OC | nt | 0
COc1ccc(N2C(=O)C3C(C2=O)C2(C)C(=O)C3(C)C(c3ccccc3)=C2c2ccccc2)c([N+](=O)[O-])c1 (configuration not stated) | 3.5 | nt
CCCCn1c(=O)c2oc3ccccc3c2n(Cc2cccc(Cl)c2)c1=O | nt | 35
O=C(Cc1csc2nc(-c3ccc(Cl)cc3)cn12)N1CCN(c2ccccc2)CC1 | nt | 5
CCC1CCCCN1C(=O)Cn1c(=O)n(CC2CCC(C(=O)NC3CCCC3)CC2)c(=O)c2ccccc21 (configuration not stated) | nt | -19
O=C(Nc1ccc(-n2nncc2-c2ccccc2)cc1)c1ccc(S(=O)(=O)N2CCCCC2)cc1 | 4.0 | 10
CC1CCCCC1NC(=O)CCn1c(=O)oc2ccccc21 (configuration not stated) | 0.0 | 6
CCn1c(=O)c(=O)[nH]c2cc(C(=O)NCc3ccc(F)cc3)ccc21 | nt | 5
CC(C)(C)c1c[n+](-c2ccccc2)c2n1CCCS2 | 1.6 | -13
N#Cc1ccccc1NC(=O)C1CCC1 | 1.6 | 6
Cc1cc2nc(CSc3ccccc3C(=O)O)cc(=O)n2o1 | nt | 9
OC1CCN(C(c2cccc(C(F)(F)F)c2)c2nnnn2Cc2ccc(F)cc2)CC1 (configuration not stated) | -3.0 | 4
CC/C(=N\NC(=O)c1cc(-c2ccco2)nc2ccccc12)c1ccc(F)cc1 | nt | 0
COc1ccccc1CNC(=O)CNC(=O)c1cccc(C)c1 | nt | 10
C/C(N)=N/S(=O)(=O)c1c(C)c(C)c(C)c(C)c1C | 0.3 | nt
O=C(CSc1nnnn1C1CCCC1)Nc1ccc(S(=O)(=O)N2CCCCC2)cc1 | nt | 11
Cc1cccc(N2CCN(C(=O)Nc3ccccc3)CC2C)c1 (configuration not stated) | -0.6 | 7
CCCNC(=O)CSc1c(-c2ccccc2)c2cc(Cl)ccc2[nH]c1=O | -0.9 | 2
COc1ccc(NC(=S)N2CCN(C)CC2)cc1 | 1.2 | 5
CC(=O)Nc1ccccc1OCC(=O)c1cc(C)n(CC2CCCO2)c1C (configuration not stated) | nt | -13
COc1ccc(S(=O)(=O)N(CC(N)=O)c2ccc(C)cc2)cc1 | -1.7 | 1
CCOc1cccc2cc(C#N)c(=O)oc12 | nt | 9
CC(C)N1CCc2c(sc(NC(=O)CCc3ccccc3)c2C#N)C1 | nt | -68
O=C(NCc1ccco1)c1cc2c(s1)CCCC2 | 2.6 | -24
CC(C(=O)O)c1c(C(=O)O)[nH]c2ccccc12 (configuration not stated) | nt | -3
CCOc1ccc(-c2nnc(SC(F)F)n2CCC(=O)O)cc1 | nt | 6
CCC(CC)C(=O)Nc1nc2ccc(OC)cc2s1 | 0.7 | -6
O=C1c2ccccc2S(=O)(=O)c2cc(C(=O)N(Cc3ccco3)Cc3cccs3)ccc21 | nt | -10
CC1CCCCN1C(=O)CSc1nnc(-c2ccccc2)o1 (configuration not stated) | nt | 2
COc1ccc(NC(=O)C2CCCCC2C(=O)O)cc1 (configuration not stated) | nt | -16
Cc1c(C#N)c(NC(=O)COc2ccc(F)cc2Br)n(Cc2ccco2)c1C | nt | -24
CC(=O)N1CCN(C(=O)c2ccc(C(=O)c3ccccc3)cc2)CC1 | nt | -6
O=C(c1cc(-c2ccccc2)n[nH]1)N1CCn2c1nc1ccccc12 | nt | -39
Cc1ccc(Nc2ncnc3ccccc23)cc1C | -2.3 | nt
CN(C(=O)c1ccc(S(C)(=O)=O)cc1)c1c(N)n(Cc2ccccc2)c(=O)[nH]c1=O | nt | 15
CN1CCC(N(C)C(=O)Nc2ccc(Cl)c(Cl)c2)CC1 | 1.6 | -8

Exported with values ahead of the structure: entries from further up.
MgrA DNA FP | S aureus helic | mol
nt | -16 | COc1ccc(NC(=O)C2CCCCC2C(=O)O)cc1 (configuration not stated)
nt | -39 | O=C(c1cc(-c2ccccc2)n[nH]1)N1CCn2c1nc1ccccc12
nt | -24 | Cc1c(C#N)c(NC(=O)COc2ccc(F)cc2Br)n(Cc2ccco2)c1C
nt | -6 | CC(=O)N1CCN(C(=O)c2ccc(C(=O)c3ccccc3)cc2)CC1

3 entries out of the list above, ordered by the value under MgrA DNA FP, largest number first.
SMILES | MgrA DNA FP | S aureus helic
CN1CCC(N(C)C(=O)Nc2ccc(Cl)c(Cl)c2)CC1 | 1.6 | -8
CCC(CC)C(=O)Nc1nc2ccc(OC)cc2s1 | 0.7 | -6
Cc1ccc(Nc2ncnc3ccccc23)cc1C | -2.3 | nt

Next records.
SMILES | MgrA DNA FP | S aureus helic
Cc1nn(CCCC(=O)NCCC2=CCCCC2)c(=O)c2nccn12 | nt | 2
CC(C)N(C(=O)NC(=O)Nc1ccccn1)S(C)(=O)=O | nt | -8
COc1ccc(Br)cc1/C=N/N=C/c1cc(Br)ccc1OC | 0.7 | nt
CCN(CC)C(=O)Cn1cc(SCC(=O)Nc2ccccc2)c2ccccc21 | nt | -32
CCOC(=O)c1cc(Cl)c(NC(=O)C(F)(F)F)c(Cl)c1 | -0.4 | nt
Clc1cnc(-n2cccc2)nc1 | 0.7 | nt
CC(N=C1NS(=O)(=O)c2ccccc21)C(=O)OCc1nnc(-c2ccc(Cl)cc2)o1 (configuration not stated) | nt | -6
COc1ccc(Cl)cc1NC(=O)COC(=O)CCC1CCCCC1 | -1.6 | 13
Cc1ccc(CN2CCCNC2=O)cc1 | 0.7 | 14
NS(=O)(=O)c1ccccc1N1C(=O)CCC1=O | nt | 2

Retrieved by compound from the entries so far:
SMILES | MgrA DNA FP | S aureus helic
Clc1cnc(-n2cccc2)nc1 | 0.7 | nt
CCN(CC)C(=O)Cn1cc(SCC(=O)Nc2ccccc2)c2ccccc21 | nt | -32
CC(N=C1NS(=O)(=O)c2ccccc21)C(=O)OCc1nnc(-c2ccc(Cl)cc2)o1 (configuration not stated) | nt | -6

Other records follow.
SMILES | MgrA DNA FP | S aureus helic
C[N+]1(C2CCC3CCC2C3=O)CCCC1 (configuration not stated) | 1.4 | 2
Cc1ccccc1CN1CCC(CNc2nc(-c3ccccc3)no2)CC1 | nt | 8
C=CCNc1ccc(F)c(F)c1N1CCCCCC1=O | -2.2 | -12
COc1cc(C=NC2CCCCCCCCCCC2)ccc1OCc1ccccc1 | -2.1 | nt
O=C1c2cccc3cccc(c23)C12OCCS2 (configuration not stated) | nt | -19
CC(=O)n1nccc1-c1cc(-c2ccccc2)no1 | -2.4 | nt
Oc1nc(-c2cccc(C(F)(F)F)c2)n2ccncc12 | nt | 7
Cc1cccc(NC(=O)C(Cc2ccccc2)NS(=O)(=O)c2ccc3c(c2)c(=O)n(C)c(=O)n3C)n1 (configuration not stated) | nt | -16
O=C(O)CSC1CC(=O)N(c2cccc(Cl)c2)C1=O (configuration not stated) | nt | -37
CCOC(=O)N1CCC(NC(=O)c2ccc3c(c2)NC(=O)C2CCCN32)CC1 (configuration not stated) | nt | -31

Compound activity deposited in PubChem by ICCB-Longwood Screening Facility, Harvard Medical School.
